Assay outcomes from PubChem BioAssay.
Sfp inh: Sfp phosphopantetheinyl transferase inhibition. Q9F4F7. Biochemical Sfp PPTase activity, qHTS. Potency, µM, inactives show max response, negative = inhibition, usual class: inhibitors. 310,000 tested, 3.5% active. AID 1490; active = well fitted inhibition curve with a large enough effect; inconclusive = small, poorly fitted or top-dose-only effect, or another doubt; inactive = no such curve, though single readings can be large or run the other way;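 note: the enzyme is Sfp with the accession as filed and its product quenches rhodamine fluorescence; potency is the fitted concentration of half-maximal effect; 0% = enzyme reaction without inhibitor and -100% = no enzyme wells; top concentration of the series not given in the record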
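Sfp 15 nM + cpd, 15 min RT; start w/ rhodamine-CoA 5 uM, BHQ-2-YbbR 12.5 uM (final); 50 mM Hepes pH 7.6, 10 mM MgCl2, 0.01% NP-40, 0.01% BSA; read 525/598 nm at 0 and 30 min.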
Menin MLL FP FL: menin-MLL binding inhibition, fluorescein peptide; Fluorescence polarization, fluorescein-MLL peptide displacement from menin; FP activity change, % at 61.4 µM; 290,000 tested, under 10 active; AID 1766; inconclusive = falling polarisation curve, or a change in total fluorescence; inactive = total fluorescence flat and polarisation flat or rising; no compound was filed as active; the % refers to the polarisation; negative = inhibition;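 note: % of control where 0% means no effect; inhibitors lower the polarisation; unlabelled MLL peptide was the positive control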
The depositor's hits bear a star; & = joins results of further samples; ! = not confirmed by another sample; [ ] = another dose, or the depositor's remark.

`[O][C@H]1[C@@H](O)[C@@H](CO)O[C@@H](O[C@@H]2[C@@H]3OC[C@H]2O[C@H](O[C@@H]2[C@@H](O)[C@H](C[C@@H]4[C@@H]5OC[C@H]4O[CH][C@@H]5O)O[C@H](CO)[C@@H]2OS(=O)(=O)O)[C@@H]3OS(=O)(=O)O)[C@@H]1O` gave Sfp inh 5% and Menin MLL FP FL -1.6.
`COc1ccc2[nH]cc(CCNc3ncncc3-c3c(C)noc3C)c2c1` gave Sfp inh 1% and Menin MLL FP FL -2.5.
For COC(=O)N1CCC2(CCCN(Cc3nccs3)C2)CC1 the results were Sfp inh -9% and Menin MLL FP FL -3.5.
For CNc1ccnc(-c2ccccc2CN(C)C)n1 the results were Sfp inh inconclusive and Menin MLL FP FL -0.2.
N#C/C(=C\c1ccc(O)c(O)c1)C(N)=O was read as Sfp inh 56µM* and Menin MLL FP FL inconclusive.
`CO/N=C(/C(=O)N[C@@H]1C(=O)N2C(C(=O)O)=C(CSc3nc(C)c(CC(=O)O)s3)CS[C@H]12)c1csc(N)n1` gave Sfp inh inconclusive and Menin MLL FP FL 3.2.
Screening NC(CCC(=O)NC(CCSC(CC(=O)O)C(=O)O)C(=O)NCC(=O)O)C(=O)O (stereo unspecified) returned Sfp inh -24% and Menin MLL FP FL 5.1.
O=C(O)c1ccccc1O[C@@H]1O[C@H](C(=O)O)[C@@H](O)[C@H](O)[C@H]1O was read as Sfp inh 8% and Menin MLL FP FL -1.0.
COc1cccc2c1C(=O)CC(c1ccccc1)O2 (stereo unspecified) was read as Sfp inh -11% and Menin MLL FP FL 3.0.
COc1cccc(-c2ccc3ncnc(N4CCN(C)CC4)c3c2)c1 was read as Sfp inh 18% and Menin MLL FP FL -9.7.
Screening CC(=O)OCC1OC(Oc2cc(OC(C)=O)c3c(=O)cc(-c4ccc(OC(C)=O)c(OC(C)=O)c4)oc3c2)C(OC(C)=O)C(OC(C)=O)C1OC(C)=O (stereo unspecified) returned Sfp inh 7% and Menin MLL FP FL inconclusive.
For FC(F)(F)C(F)(F)C(F)(F)C(F)(F)C(F)(F)C(F)(F)F the results were Sfp inh 14% and Menin MLL FP FL -4.2.
Screening CCCCCCCNS(=O)(=O)c1cccc2c(Cl)cccc12 returned Sfp inh -2% and Menin MLL FP FL inconclusive.
For N#Cc1ccccc1-c1ccc2ncnc(NCCN3CCOCC3)c2c1 the results were Sfp inh 37%[activator] and Menin MLL FP FL -1.1.
Screening COc1ccc(-c2cc(=O)c3ccccc3o2)cc1OC returned Sfp inh 35µM* and Menin MLL FP FL 3.7.
`O=C(c1ccco1)N1CCC[C@@]2(CCN(c3ncccn3)C2)C1` gave Sfp inh 19% and Menin MLL FP FL 0.2.
`CC(C)=CCC/C(C)=C/CO/N=C1/[C@H]2O[C@@H]2[C@@H](O)[C@H]2[C@H]1CCn1c(=O)n(C)c(=O)n12` gave Sfp inh -12% and Menin MLL FP FL -1.8[11.7 µM].
C=C(CC1([C@@H](NP(=O)(c2ccccc2)c2ccccc2)[C@H]2C[C@@H]2CCN(C(=O)OCC)S(=O)(=O)c2ccc(C)cc2)CC1)c1ccccc1 was read as Sfp inh 19% and Menin MLL FP FL 4.1.
For CN1CCc2ccc3c4c2[C@]1(C)Cc1cccc(c1-4)OCO3 the results were Sfp inh inconclusive and Menin MLL FP FL inconclusive.
For COc1cc(/C=C\c2ccc(OC)cc2OC)cc(OC)c1 the results were Sfp inh 50µM* and Menin MLL FP FL inconclusive.
For COc1cccc(Nc2ncc3ncc(=O)n(C)c3n2)c1 the results were Sfp inh 7% and Menin MLL FP FL -23.
For COC1C=CO[C@@]2(C)Oc3c(C)c(O)c4c(O)c(c5c(nc6cc(C)ccn65)c4c3C2=O)NC(=O)/C(C)=C\C=CC(C)C(O)[C@@H](C)C(O)C(C)[C@@H](OC(C)=O)C1C (stereo partly specified) the results were Sfp inh 13% and Menin MLL FP FL 2.8.
`O=C1C=CC2=C3c4cc(O)c(O)cc4C[C@]3(O)COC2=C1` gave Sfp inh -109% and Menin MLL FP FL inconclusive.
CC(=O)N[C@H](CC(C)C)C(=O)O was read as Sfp inh -5% and Menin MLL FP FL 0.9.

Not a retest: an excerpt of the list.
For COc1cccc(Nc2ncc3ncc(=O)n(C)c3n2)c1 the results were Sfp inh 7% and Menin MLL FP FL -23.
For COC1C=CO[C@@]2(C)Oc3c(C)c(O)c4c(O)c(c5c(nc6cc(C)ccn65)c4c3C2=O)NC(=O)/C(C)=C\C=CC(C)C(O)[C@@H](C)C(O)C(C)[C@@H](OC(C)=O)C1C (stereo partly specified) the results were Sfp inh 13% and Menin MLL FP FL 2.8.
`O=C1C=CC2=C3c4cc(O)c(O)cc4C[C@]3(O)COC2=C1` gave Sfp inh -109% and Menin MLL FP FL inconclusive.

Reprinted at random: 2 entries already listed, in no set order.
`O=C(c1ccco1)N1CCC[C@@]2(CCN(c3ncccn3)C2)C1` gave Sfp inh 19% and Menin MLL FP FL 0.2.
For COc1cccc(Nc2ncc3ncc(=O)n(C)c3n2)c1 the results were Sfp inh 7% and Menin MLL FP FL -23.

The results go on:
`CO[C@H]1COC(=O)[C@H](C)COC(=O)C/C=C\[C@@H](C)[C@H](OC)COC(=O)C/C=C\[C@@H]1C` gave Sfp inh 4% and Menin MLL FP FL 0.6[11.7 µM].
Screening COC1(C)CCC2OC2(C)CCC2C1CC2(C)C (stereo unspecified) returned Sfp inh -3% and Menin MLL FP FL 0.9.
Screening COc1ccc(OCC2CN3C(CCC(C)C3c3ccc(Br)cc3)C(=O)O2)cc1 (stereo unspecified) returned Sfp inh 36%&12%[activator] and Menin MLL FP FL 4.7&-0.1[11.7 µM].
`CCC1=C2CC[C@H]3C(=O)NC(=O)[C@H]3[C@H]2[C@@]2(C)C(=NCCOC)OC(=O)N2C1=O` gave Sfp inh 0% and Menin MLL FP FL 1.4.
Screening Cc1noc(C)c1-c1cc(N2CCN(C)CC2)ncn1 returned Sfp inh 7% and Menin MLL FP FL 5.5.
`CCNC(=O)[C@H](C)/C=C/C(NC(=O)OCc1ccccc1)c1ccc(C(=O)OC)cc1` (stereo partly specified) gave Sfp inh 12% and Menin MLL FP FL -1.1.
Cn1cc(-c2nc3cnc(Oc4cccc(Cl)c4)nc3n(CCC#N)c2=O)c2ccccc21 was read as Sfp inh 2% and Menin MLL FP FL inconclusive.
`CO[C@]12CC(COC(=O)c3cncc(Br)c3)CN(C)[C@@H]1Cc1cn(C)c3cccc2c13` (stereo partly specified) gave Sfp inh 12% and Menin MLL FP FL -4.0.
CC12C=C(/C=C/c3ccc(F)cc3)C(C)(C1)C(c1ccc(F)cc1)CC2=O (stereo unspecified) was read as Sfp inh inconclusive and Menin MLL FP FL -0.4[11.7 µM].
Cc1cc2c(nc1C)CCCN2C[C@H](O)CN1CCCc2nc(-c3ccc(Br)cc3)ccc21 was read as Sfp inh 16% and Menin MLL FP FL -0.9&-0.1[11.7 µM].
`COc1ccc(OC2C=CC(c3ccccc3)OC2CO)c(C(C)(C)C)c1` (stereo unspecified) gave Sfp inh 14% and Menin MLL FP FL -3.5[11.7 µM].
`COc1cc2nc3c(c([Si](C)(C)C(C)(C)C)c2cc1OC)Cn1c-3cccc1=O` gave Sfp inh 79µM* and Menin MLL FP FL inconclusive.
`CN(C)C(=O)c1ccc(-c2ccc3ncnc(N(C)Cc4ccco4)c3c2)cc1` gave Sfp inh 5% and Menin MLL FP FL -2.7.
`O=C(NCCCN1CCCCCC1)[C@@H](c1ccccc1)C1CCCCC1` gave Sfp inh 5% and Menin MLL FP FL 9.5.
N[C@@H](CSSC[C@H](N)C(=O)O)C(=O)O was read as Sfp inh 6% and Menin MLL FP FL 1.3.
Screening Cn1c(-c2nc(-c3ccccc3)cs2)nc2ccccc21 returned Sfp inh 45µM* and Menin MLL FP FL inconclusive.
For N#Cc1cccc(NC(=O)N2CCCC3(CCN(S(=O)(=O)c4ccccc4)CC3)C2)c1 the results were Sfp inh 27% and Menin MLL FP FL -0.9.
CC(=O)N1CCC2(CCCN(Cc3ccc(C#N)cc3)C2)CC1 was read as Sfp inh 14% and Menin MLL FP FL 2.8.
Screening CCCCCCN(C(=O)CCCCCN1C(=O)NC(c2ccccc2-c2ccccc2)C(C(=O)OCc2ccccc2)=C1C)C(C(=O)NCCCC)c1ccc(OCC(=O)OC)c(C(=O)OC)c1 (stereo unspecified) returned Sfp inh 4% and Menin MLL FP FL 0.2.
C=C1C[C@]23C[C@@]1(O)CC[C@H]2[C@@]12C=C[C@H](O)C(C)(C(=O)O1)[C@H]2[C@@H]3CC(=O)O was read as Sfp inh -1% and Menin MLL FP FL -5.9.
`COc1cccc(-c2ccc3ncnc(NCc4ccccc4OC)c3c2)c1` gave Sfp inh -15% and Menin MLL FP FL -0.5.
For CS(=O)(=O)N1CCC2(CC1)CN(c1ccc(-c3ccccc3)cc1)C2 the results were Sfp inh 4% and Menin MLL FP FL 1.7.
For COc1ccc(Oc2ncc3nc(-c4ccc(Cl)cc4)c(=O)n(C[C@H]4CCCO4)c3n2)cc1 the results were Sfp inh -1% and Menin MLL FP FL 0.9.
`CCCCOC(OCCCC)[C@H](O)CSc1ccc2ccccc2c1` gave Sfp inh 15% and Menin MLL FP FL -4.6[11.7 µM].
`CC[C@H](C)C(=O)O[C@H]1CCC=C2C=C[C@H](C)[C@H](CC[C@@H]3C[C@H](O)CC(=O)O3)[C@H]21` gave Sfp inh -1% and Menin MLL FP FL 5.9.
For CC(C)=CC(=O)Oc1ccc(C(=O)N(C)c2ccccc2I)cc1 the results were Sfp inh 5% and Menin MLL FP FL -2.9.
COC(=O)NC(c1ccccc1)c1c[nH]c2ccc(OC)cc12 (stereo unspecified) was read as Sfp inh 19% and Menin MLL FP FL -0.9.
`CCCCOC(=O)c1cc2c(cn1)[nH]c1ccccc12` gave Sfp inh 8%&4%&-12% and Menin MLL FP FL -6.5.
Cc1noc(C)c1C(=O)N1CCC[C@@]2(CCN(C(=O)NC(C)C)C2)C1 was read as Sfp inh 11% and Menin MLL FP FL -0.7.
For CCCCC/C=C\C/C=C\C/C=C\CCCCCCC(=O)O[C@H](COCCCCCCCCCCCCCCCC)COP(=O)([O-])OCC[N+](C)(C)C the results were Sfp inh -5% and Menin MLL FP FL -3.0.
Cc1ccc2c(c1)c(CC(NC(=O)c1ccccc1Oc1ccccc1)C(=O)O)cn2C(=O)OCc1ccccc1 (stereo unspecified) was read as Sfp inh -18% and Menin MLL FP FL 0.1.
`C=CCOCC1CN2C(CCC(C)C2c2ccc(Br)cc2)C(=O)O1` (stereo unspecified) gave Sfp inh 3% and Menin MLL FP FL -0.8[11.7 µM].
`COC(=O)c1ccc(C(NC(=O)OCc2ccccc2)/C(=C/[C@@H](C)C(=O)NCCF)c2cccnc2)cc1` (stereo partly specified) gave Sfp inh 14% and Menin MLL FP FL -0.5.
CCCc1cc(OC)c2c(c1)OCO2 was read as Sfp inh 18% and Menin MLL FP FL 1.3.
`Cc1nc2cnc(Oc3cccc(Cl)c3)nc2n(Cc2ccc(F)cc2)c1=O` gave Sfp inh 0% and Menin MLL FP FL 19.
`CCCCCC(C)N` (stereo unspecified) gave Sfp inh 10% and Menin MLL FP FL -1.7.

Ordered by length of the SMILES (falling): 3 of the compounds above.
`C=CCOCC1CN2C(CCC(C)C2c2ccc(Br)cc2)C(=O)O1` (stereo unspecified) gave Sfp inh 3% and Menin MLL FP FL -0.8[11.7 µM].
For CNc1ccnc(-c2ccccc2CN(C)C)n1 the results were Sfp inh inconclusive and Menin MLL FP FL -0.2.
`CCCCCC(C)N` (stereo unspecified) gave Sfp inh 10% and Menin MLL FP FL -1.7.

Remaining list, next part:
`COc1ncc2nc(-c3ccccc3)c(=O)n(C[C@H]3CCCO3)c2n1` gave Sfp inh 4% and Menin MLL FP FL -3.0.
`COc1ccccc1CN1CC2(CCN(C(=O)c3cccc(F)c3)CC2)C1` gave Sfp inh 9% and Menin MLL FP FL -0.2.
Screening COCCn1c(=O)c(-c2cccc(C#N)c2)nc2cnc(N(C)C)nc21 returned Sfp inh 22% and Menin MLL FP FL inconclusive.
For O=C1C[C@H](c2ccc(-c3ccccc3)cc2)N1S(=O)(=O)c1ccccc1[N+](=O)[O-] the results were Sfp inh 10% and Menin MLL FP FL -4.0.
`CC1CCC2C(=O)OC(Cc3ccccc3)CN2C1c1ccc(Br)cc1` (stereo unspecified) gave Sfp inh 11%&29% and Menin MLL FP FL 0.0&4.4[11.7 µM].
O=C1C=C(NCCO)C(=O)c2cnccc21 was read as Sfp inh -1% and Menin MLL FP FL -2.4.
Screening COC(=O)c1nnc(SC)nc1C(=O)OC returned Sfp inh -12% and Menin MLL FP FL 0.7.
NC1(C(=O)O)C[C@H](C(=O)O)[C@H](C(=O)O)C1 (stereo partly specified) was read as Sfp inh 50µM*! and Menin MLL FP FL 0.2.
`Cn1c(=O)c(-c2ccc(F)cc2)nc2cnc(Nc3ccccc3)nc21` gave Sfp inh 7% and Menin MLL FP FL -3.8.
CC(C)C[C@@H](CC(=O)N[C@H](CC(=O)N[C@@H]1CCNC[C@H]1C(=O)N[C@H](CC(=O)N[C@@H](CCC(=O)O)CC(=O)O)CC(C)C)C(C)C)NC(=O)[C@@H]1CCCC[C@H]1N was read as Sfp inh 2% and Menin MLL FP FL 1.0.
For CN(C)c1ncc2nc(-c3ccc(F)cc3)c(=O)n(C3CC3)c2n1 the results were Sfp inh 6% and Menin MLL FP FL inconclusive.

Only part of the results is shown, so the mix of outcomes need not match the whole.
